# Compound activity (PubChem BioAssay)
# D2 agonist = human D2 receptor agonism in beta-arrestin assay; activation, % (no concentration beside the values); DiscoveRx PathHunter D2 beta-arrestin, luminescence, 90 min; 100% = 57 uM dopamine signal; P14416; 360,000 compounds, 0.084% hits; in the data active = activation above about 40%; inconclusive = about 15% to 40%; inactive = below about 15%; note: compound concentration not given in the record; the text of the record calls up to 30% inactive
# Target sequence (P14416 whole entry, looked up): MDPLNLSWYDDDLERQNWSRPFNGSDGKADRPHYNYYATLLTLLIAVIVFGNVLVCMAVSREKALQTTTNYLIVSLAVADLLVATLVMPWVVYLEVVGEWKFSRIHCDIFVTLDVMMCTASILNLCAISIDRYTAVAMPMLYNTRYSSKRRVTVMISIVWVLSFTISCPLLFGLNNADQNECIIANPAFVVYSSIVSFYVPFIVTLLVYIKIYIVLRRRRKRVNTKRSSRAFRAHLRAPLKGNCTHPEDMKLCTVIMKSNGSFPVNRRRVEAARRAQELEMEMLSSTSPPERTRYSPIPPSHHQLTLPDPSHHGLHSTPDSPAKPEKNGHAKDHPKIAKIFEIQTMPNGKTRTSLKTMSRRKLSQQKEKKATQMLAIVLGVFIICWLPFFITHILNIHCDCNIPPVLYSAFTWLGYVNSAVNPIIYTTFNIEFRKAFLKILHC
#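 Agonist mode: compounds alone added to overnight-plated D2 PathHunter cells for 90 min at 37 C, with 57 uM final dopamine (EC100) defining full response. Beta-arrestin recruitment detected by chemiluminescent reagent, read after 1 h at ambient temperature.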
# ClpP mod = qHTS Assay for Activators of ClpP; 340,000 compounds, 1.9% hits; ATP-dependent Clp protease proteolytic subunit (Bacillus subtilis (strain 168)), P80244; purified B. subtilis ClpP, FRET peptide cleavage, 20 min; AID 651965, 2013; Potency, µM (titrated, usually from 57.5 µM), inactives show at the highest dose activity change, negative = active; active = well fitted falling curve with a large enough effect; inconclusive = small, poorly fitted or top-dose-only effect; inactive = no such curve, though single readings can be large or run the other way; note: potency is the fitted concentration of half-maximal effect; the source files actives as falling curves though it sought activators and does not explain the sign; nearly all actives have a fitted effect of over 65% in size; many hits overshoot -100%
# Target sequence (P80244 whole entry, looked up): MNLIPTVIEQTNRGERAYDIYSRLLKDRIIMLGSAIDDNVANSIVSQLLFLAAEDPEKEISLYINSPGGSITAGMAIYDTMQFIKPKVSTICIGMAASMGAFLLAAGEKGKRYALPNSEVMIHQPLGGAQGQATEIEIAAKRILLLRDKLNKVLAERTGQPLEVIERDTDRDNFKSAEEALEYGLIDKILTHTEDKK
#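 FRET quenching reversal measured ClpP activation: 10 microg/mL B. subtilis ClpP at pH 8 with the FRET-FV decapeptide, read at 430 nm after 320 nm excitation. The 20-min minus 0-min signal was scaled between DMSO/no-enzyme wells and ADEP (5.8 microM final).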
# gsp ag = activates gsp, the McCune-Albright syndrome mutation; gsp mutant cells, cAMP HTRF, 30 min; control for the full effect not named in the record; Potency, µM (series often up to 76.9 µM), inactives show top-dose activation (cAMP increase), actives largely listed as activators; 340,000 compounds, 0.13% hits; AID 624287; active = well fitted activation curve with a large enough effect; inconclusive = small, poorly fitted or top-dose-only effect, or another doubt; inactive = no such curve, though single readings can be large or run the other way; cell line not stated here;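 note: phosphodiesterase inhibitor Ro 20-1724 added with compounds to block cAMP breakdown; potency is the fitted concentration of half-maximal effect; nearly all actives have a fitted effect of over 60% in size; about a fifth of the inactives were tested at one dose only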
#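 Cells stably selected in G418 were plated at 2000/well, grown 16-24 hr, then given compounds in DMSO with the PDE inhibitor […] (300 uM solution added) for 30 min at 37C; cAMP was read by HTRF.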
# gsp antagonist = antagonists of gsp mutant (McCune-Albright syndrome). gsp-mutant cells, cAMP HTRF, 30 min; control for the full effect not named in the record. Potency, µM (highest dose often 76.9 µM), for inactives: top-dose activity change, negative = inhibition, usual class: inhibitors. 340,000 compounds, 0.4% hits. AID 624288; active = falling curve of any shape with a large fitted effect; inconclusive = falling curve, mostly with a smaller effect; inactive = flat or rising curve; cell line not stated here;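 note: intracellular cAMP measured with PDE inhibitor Ro 20-1724 present during compound exposure; potency is the fitted concentration of half-maximal effect; % is set by controls: 0 for no effect and ±100 for the full control effect; nearly all actives have a fitted effect of over 65% in size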
#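 Cells in G418 medium, seeded 16-24 h, 37C; buffer exchange to DPBS + 1 mM CaCl2, 0.5 mM MgCl2, 0.05% BSA; cpds in DMSO + […] (300 uM stock), 30 min 37C; HTRF cAMP detection.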
# Menin-MLL FL inh = menin-MLL binding inhibition, fluorescein peptide; Fluorescence polarization, fluorescein-MLL peptide displacement from menin; FP activity change, % at 61.4 µM; 290,000 tested, under 10 active; AID 1766; inconclusive = falling polarisation curve, or a change in total fluorescence; inactive = total fluorescence flat and polarisation flat or rising; no compound was filed as active; the % refers to the polarisation; negative = inhibition;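 note: % of control where 0% means no effect; inhibitors lower the polarisation; unlabelled MLL peptide was the positive control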
# Sfp PPTase inh = inhibitors of Bacillus subtilis Sfp phosphopantetheinyl transferase; Q9F4F7; Biochemical Sfp PPTase activity, qHTS; Potency, µM, inactives show max response, negative = inhibition, usual class: inhibitors; 310,000 compounds, 3.5% hits; active = well fitted inhibition curve with a large enough effect; inconclusive = small, poorly fitted or top-dose-only effect, or another doubt; inactive = no such curve, though single readings can be large or run the other way;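 note: the enzyme is Sfp with the accession as filed and its product quenches rhodamine fluorescence; potency is the fitted concentration of half-maximal effect; 0% = enzyme reaction without inhibitor and -100% = no enzyme wells; top concentration of the series not given in the record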
#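 Fluorescence-quenching assay with 15 nM Sfp, 5 uM rhodamine-CoA and 12.5 uM BHQ-2-labelled ybbR peptide in pH 7.6 Hepes/MgCl2 buffer. Enzyme was pre-incubated with compound for 15 min at room temperature. Rate was taken from the 30-min fluorescence change (525/598 nm).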
# PINK1 expr mod = modulators of PINK1 expression. PINK1 immunofluorescence, high-content cytometry, 24 h. Potency, µM (top dose mostly 76.6 µM), without a hit: at the highest dose activation (PINK1 increase), actives largely listed as activators. 410,000 compounds, 0.2% hits; active = well fitted activation curve with a large enough effect; inconclusive = small, poorly fitted or top-dose-only effect; inactive = flat fitted curve, though single readings scatter; cell line not stated here;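 note: potency is the fitted concentration of half-maximal effect; % of control where 0% means no effect; nearly all actives have a fitted effect of over 65% in size; a mitochondrial uncoupler was the plate control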
#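 Compound titrations (5 concentrations, 24 h) on a stable cell line; DMSO and CCCP controls. Endpoint: fixed-cell PINK1 immunofluorescence with mitochondrial, cell and nuclear markers, scanned by microplate cytometer.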
# * = called active by the depositor; u = inconclusive; x = no result given; [ ] = another dose, or the depositor's remark.
SMILES,D2 agonist,ClpP mod,gsp ag,gsp antagonist,Menin-MLL FL inh,Sfp PPTase inh,PINK1 expr mod
N#C/C(=C\c1ccccc1O)C(=O)Nc1ccccn1,11,3.7%,44%,2%,24,10%,-2.1%
CCn1nc(C(=O)NCCc2ccc(S(N)(=O)=O)cc2)c2ccccc2c1=O,-1.3,u,16%,-1%,-7.0,9%,1.0%[38.3 µM]
COCCNC(=O)CSc1nc2scc(-c3ccccc3)c2c(=O)[nH]1,-4.8,-1.1%,u,-6%,18,16%,2.6%
Cc1ccc(S(=O)(=O)/N=C(/Nc2cccc3ccccc23)c2ccc(F)cc2)cc1,-0.8,-0.3%,u,u,2.0,7%,0.5%
O=C(Nc1ccc(Cl)c([N+](=O)[O-])c1)c1cnccn1,-3.5,-1.4%,1%,u,5.2,0%,0.1%
COc1cc(OC)c(C(=O)NCCCn2ccnc2)cc1OC,-1.7,0.2%,-1%[15.4 µM],16%,-0.5,21%,2.6%
C[C@@H]1/C(=N/O)CC2C[C@@H]1C2(C)C,x,x,x,x,0.0,8%,-1.5%
CCc1ccc(S(=O)(=O)Nc2cc(SCC(=O)O)c(O)c3ccccc23)cc1,u,29%,-2%,-9%,-9.2,4µM*,6.6%
O=Cc1c(N2CCCCC2)nc2ccccn2c1=O,2.9,x,11%,2%,3.6,-16%,-1.8%
C/C(=N\NC(=O)C1COc2ccccc2O1)c1cccs1 (stereo unspecified),-2.5,-3.9%,-18%,5%,-0.8,-3%,-1.3%[38.3 µM]
O=C(OCC(=O)N1CCN(c2ccc(F)cc2)CC1)c1cnc2ccccc2n1,0.6,2.7%,9%,-9%,x,x,1.7%
COc1ccc(N=C(N)SCc2ccccn2)cc1,-1.5,1.0%,1%[15.4 µM],3%,7.3,u,1.3%
CC(C)=CC(=O)Nc1nnc(-c2ccc(F)cc2)s1,-0.6,-1.3%,-2%,-1%,0.0,15%,x
CCNC(=O)CN(C1CCCCC1)S(=O)(=O)c1ccc(F)cc1,-1.7,0.4%,-16%,9%,1.4,3%,0.6%
CNC(=O)c1ccsc1NC(=O)CCS(=O)(=O)c1ccc(C)cc1,-6.2,x,19%[15.4 µM],5%,x,x,3.7%
CN1CCC2(CC1)CCN(S(=O)(=O)c1ccccc1)CC2,x,x,x,x,-9.1,11%,0.9%
CCOC(=O)C1=C(CN2CCSCC2)NC(=O)NC1c1cc(C)ccc1C (stereo unspecified),3.1,1.0%,13%,-3%,-2.2,-5%,2.3%[38.3 µM]
Cc1ccccc1NC(=O)Cc1nc(COC(=O)c2ccc(S(C)(=O)=O)c([N+](=O)[O-])c2)cs1,5.9,-3.2%,12%,6%,x,x,-2.0%
O=C(NCC(=O)N1CCOCC1)c1ccc(Br)cc1,0.0,-1.0%,9%,8%,x,12%,-1.0%
CC(C)CN(CC(C)C)CC(O)CN(c1ccccc1)S(=O)(=O)c1ccccc1[N+](=O)[O-] (stereo unspecified),-3.0,x,0%[15.4 µM],-6%,-0.9,23%,10%
COc1ccc(CC(=O)NCC2CCCN(Cc3ccc(F)cc3F)C2)cc1 (stereo unspecified),-4.7,-0.5%,-4%,-1%,1.0,4%,-0.3%
CC1CCc2c(sc3nc(C(C)(C)C)nc(N4CCN(C(=O)CCl)CC4)c23)C1 (stereo unspecified),-0.6,x,-24%,u,0.6,-10%,-0.9%
Cn1c(NC(=O)c2cccc(Cn3cc(Cl)cn3)c2)nc2ccccc21,0.9,u,11%,12%,3.2,21%,11µM*
CC(C(=O)Nc1ccccc1-c1ccccc1)N1CCCCC1 (stereo unspecified),-1.9,-1.3%,0%,3%,2.4,-1%,3.3%
Cn1cnnc1SC/C(O)=C(\C#N)c1nc2ccccc2[nH]1,-0.6,1.2%,-19%,-20%,8.0,-26%,-0.5%
COC(=O)C(Cc1csc2ccc(Cl)cc12)NC(=O)c1ccc(Cl)cc1 (stereo unspecified),0.0,x,4%,-15%,1.7,9%,1.2%
Cc1ccc(C(=O)N2NC(c3ccc(F)cc3)C3C(=O)N(c4ccc(C)c(C)c4)C(=O)C32)cc1 (stereo unspecified),-2.5,-2.5%,-28%,-3%,0.6,3%,-3.5%
CC[C@H](C)[C@H](NC(N)=O)C(=O)NCCc1ccc(Cl)cc1,3.8,x,-10%[15.4 µM],12%,-1.7,7%,0.4%
c1ccc(CNc2nc(CN3CCOCC3)nc3scc(-c4ccccc4)c23)cc1,-4.0,2.6%,-9%[15.4 µM],9%,4.1,u,2.8%
COc1ccc(/C(O)=C2/C(=O)C(=O)N(CCN(C)C)C2c2ccc(F)cc2)cc1Cl (stereo unspecified),-5.1,-3.9%,34%,21%,0.3,19%,-1.7%
O=C1CC(c2cc3c(cc2Br)OCO3)C2=C(CCCC2=O)N1 (stereo unspecified),-0.6,25µM*,-66%[inhibitor],-8%,3.6,15%,-2.5%
CC(C)(C)C(=O)N1CCN(c2ccc(NC(=O)c3ccc4c(c3)OCCO4)cc2)CC1,-0.3,x,-1%,-12%,-5.2,2%,3.3%
CCCCOc1ccccc1N1CCN(CCCN2C(=O)C3CCCN3C2=O)CC1 (stereo unspecified),-2.5,-0.7%,-4%,0%,-1.5,3%,1.6%
N#Cc1ccc(CSc2nnc(-c3c[nH]c4ccccc34)n2-c2ccccc2)cc1,13,x,-13%[15.4 µM],-37%,-3.3,13%,0.0%
CCN1CCN(CC(=O)c2cc(OC)c(OC)c(OC)c2)CC1,-0.3,x,10%,7%,-6.4,16%,-0.7%
Cc1cc(/C=C2\SC(N)=NC2=O)c(C)n1-c1ccccc1,-0.1,0.3%,-64%[inhibitor],9%,12,50µM*,-0.2%
CN1CCN(Cc2c(C(=O)N/N=C/c3cccc(Br)c3)nnn2-c2nonc2N)CC1,0.4,-2.4%,u,-3%,-1.9,4%,-0.5%
O=C(N[C@@H](CO)C(=O)NCc1ccccc1)c1ccc(C(F)(F)F)cc1,-1.7,-0.5%,x,14%,8.8,11%,-0.3%
C[C@@H]1CCCCO[C@@H](CN(C)S(=O)(=O)c2cn(C)cn2)[C@@H](C)CN([C@H](C)CO)C(=O)c2cc(NC(=O)Nc3ccc(C(F)(F)F)cc3)ccc2O1,-1.7,-3.7%,10%,x,x,x,1.6%
CNc1oc(-c2ccco2)nc1C#N,-1.2,u,14%,-3%,3.1,7%,0.6%
O=C(/C=C/Nc1ccccc1)c1ccc(Cl)cc1Cl,-3.6,-0.7%,0%,-12%,2.6,-3%,3.4%
CCc1c(C(=O)N/N=C/c2sccc2C)nnn1-c1nonc1N,-1.4,x,25%,7%,0.6,13%,17%
CC(=O)c1c(C)c[nH]c1C,-3.9,-1.2%,1%,4%,-0.7,7%,0.4%
Cc1nc(NC(CC(C)C)C(=O)O)c2nc(C)oc2n1 (stereo unspecified),-0.9,-1.8%,2%,8%,-1.7,4%,3.1%[38.3 µM]
O=C(O)c1ccc(COc2ccccc2Cl)cc1,-3.0,-3.1%,-7%,-18%,-1.9,-6%,1.6%[38.3 µM]
CN(C)/N=C/c1ccc(OS(=O)(=O)c2ccccc2)cc1,1.5,x,-13%[15.4 µM],x,-2.7,11%,0.9%
COc1ccc(-n2cc(CNCCCn3ccnc3)c(-c3cccc(F)c3)n2)cc1,0.9,3.6%,u,-13%,-4.6,-19%,1.1%
Cc1cccc(NC(=O)Nc2ccc(Cl)c(Cl)c2)n1,1.9,1.5%,3%[15.4 µM],-15%,-2.1,9%,2.8%
Cc1cccc(-c2nc(S(=O)(=O)c3ccccc3)c(N3CCOCC3)o2)c1,-8.6,x,5%[15.4 µM],-22%,x,-3%,0.4%
CCOc1cc(CNc2ccc3cn[nH]c3c2)ccc1OC,1.6,-23%,-2%,14%,-0.7,-13%,-0.2%
# Following part:
SMILES,D2 agonist,ClpP mod,gsp ag,gsp antagonist,Menin-MLL FL inh,Sfp PPTase inh,PINK1 expr mod
CCSC1=NC(C)(C)C=C(/C=C/c2ccc(Cl)cc2Cl)N1,-8.2,-0.6%,23%,12%,13,u,-1.4%
Cc1cc(C)c(S(=O)(=O)c2ccccc2Cl)c(=O)[nH]1,-1.8,-28%,-1%,7%,-5.0,6%,-2.6%
Cc1cccc(C(=O)N[C@H](C(=O)Nc2nnc(C3CC3)s2)C(C)C)c1,-2.4,-6.8%,-70%[inhibitor],-5%,8.3,-8%,-2.2%
Cc1cc2occ(CC(=O)O)c2cc1C,-2.5,1.1%,21%,0%,1.0,10%,2.3%
O=C(c1ccc(F)cc1)N1CCC(C(=O)N2CCN(S(=O)(=O)c3cccc([N+](=O)[O-])c3)CC2)CC1,-2.9,-4.8%,-2%,1%,x,x,0.7%
COc1cccc(-c2cnc3c(NC=O)cc(-c4ccc(N5CCN(C)CC5)cc4)cn23)c1,4.2,-9.4%,x,x,x,x,9.1%
CCOC(CNC(=O)c1nnc(Cc2cc(OC)c(OC)c(OC)c2)o1)OCC,-2.0,x,11%,8%,-4.8,15%,0.8%
Cc1ccc2[nH]c3nc(N/N=C/c4cccc(O)c4)nnc3c2c1,-0.6,-2.5%,14%[15.4 µM],-9%,2.1,-13%,2.0%
COC(=O)Cn1nc(-c2ccccc2)c2ccccc2c1=O,0.1,-1.2%,-25%,0%,1.7,27%,-4.7%[38.3 µM]
COc1ccccc1C(=O)NCCC(=O)Nc1cccnc1,0.9,-3.2%,-5%,-11%,7.1,14%,0.8%
CCOC(=O)C1CCN(Cc2ccccc2C(F)(F)F)CC1,-0.7,2.1%,-43%[inhibitor],1%,0.3,-20%,8.7%[38.3 µM]
CSCCC(NC(=O)C12CC3CC(CC(C3)C1)C2)C(=O)OCC(=O)c1ccccc1 (stereo unspecified),-2.7,x,1%[15.4 µM],16%,1.1,9%,3.9%
CC(=O)Nc1c(C)ccc2nsnc12,2.8,1.1%,5%,-10%,3.0,1%,0.2%
C=CCNC(=O)c1onc(CSc2ccc(OC)cc2)c1C(=O)O,-2.0,-2.2%,-29%,-4%,-0.3,0%,0.3%

# An unsorted share of the library; 5.1% or so of the library scored in one or more.
